Screening results as filed in PubChem.
RecA intein inh – blocks M. tuberculosis RecA intein splicing | P9WHJ3 | actives 0.75% (n = 290,000) | inhibition, %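 (about 9 µM by stock and volumes)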 | cell-free RecA intein splicing, fluorescence; in the data active = inhibition above about 30%; inconclusive = no clear call, values can overlap the other calls;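 also: 0% = vehicle wells and 100% = reference inhibitor control wells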
Target sequence (P9WHJ3 whole entry, looked up): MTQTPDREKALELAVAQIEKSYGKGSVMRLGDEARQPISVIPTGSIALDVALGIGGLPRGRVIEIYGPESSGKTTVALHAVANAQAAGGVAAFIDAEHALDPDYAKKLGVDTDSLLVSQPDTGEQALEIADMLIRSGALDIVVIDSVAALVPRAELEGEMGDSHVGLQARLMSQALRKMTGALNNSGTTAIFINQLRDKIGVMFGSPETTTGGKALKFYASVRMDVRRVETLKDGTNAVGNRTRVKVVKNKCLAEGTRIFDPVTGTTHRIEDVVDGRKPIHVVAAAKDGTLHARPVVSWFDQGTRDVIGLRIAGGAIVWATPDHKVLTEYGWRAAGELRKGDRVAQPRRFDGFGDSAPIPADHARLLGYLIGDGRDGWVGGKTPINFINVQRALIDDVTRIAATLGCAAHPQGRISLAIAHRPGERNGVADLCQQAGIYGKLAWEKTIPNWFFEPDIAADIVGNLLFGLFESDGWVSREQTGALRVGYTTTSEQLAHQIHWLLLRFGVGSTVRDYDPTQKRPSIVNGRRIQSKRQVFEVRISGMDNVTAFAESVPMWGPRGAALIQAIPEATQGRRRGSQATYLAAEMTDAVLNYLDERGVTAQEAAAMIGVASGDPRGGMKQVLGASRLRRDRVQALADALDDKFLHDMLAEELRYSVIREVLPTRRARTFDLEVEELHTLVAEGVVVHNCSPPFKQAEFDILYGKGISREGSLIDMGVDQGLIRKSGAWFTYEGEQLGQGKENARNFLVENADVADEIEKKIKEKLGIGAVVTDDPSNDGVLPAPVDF
Arbovirus anti – blocks arbovirus infection | inhibition, % at 10 µM | arbovirus infection cell-based antiviral screen | actives 0.37% (n = 200,000);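 active = inhibition from about 30%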;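 also: bluetongue infection of BSR cells; cell survival read as ATP light after 72 h; 0% = infected wells without compound and 100% = uninfected wells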
YopH inh – YopH (Yersinia) phosphatase inhibition; actives 0.16% (n = 140,000); AID 898; inhibition, %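 (about 10 µM by stock and volumes)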; fluorescence Ex485/Em525;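 active = inhibition of 50% or more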;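 also: controls were vehicle for no effect and minimum signal wells for full effect; inactives centre near -20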
Mtb bLac sens – beta-lactam sensitization of Mtb H37Rv; M. tuberculosis H37Rv growth with meropenem, percent inhibition; hits of this screen are not shown here; actives 0.27% (n = 330,000); AID 434955; inhibition, % at 25 µM;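 active = about 74% or more and at least 40 points above the plate without the antibiotic, then above 30% in a dose series; inconclusive = first-round hits that could not be retested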;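 also: growth measured after seven days incubation then overnight dye step; 0% = bacteria only wells and 100% = bacteria with antibiotic; twin plates without the antibiotic show which effects depend on it; some results filed as inactive read as strong as hits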
Mtb growth – M. tuberculosis H37Rv growth inhibitors, H37Rv strain (AID 1626). M. tuberculosis H37Rv growth inhibition; higher % means a stronger effect. inhibition, % at 10 µM; hits with a dose series show IC50 in µM. actives 0.95% (n = 220,000);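 active = confirmed in a dose series; inconclusive = inhibition above 80% but not taken into the dose series; inactive = below 80% or under 30% at every dose of the series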;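 also: bacteria incubated seven days before Alamar blue readout; 0% = bacteria only wells and 100% = bacteria with antibiotic wells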
Arbovirus anti repeat – recorded beside Arbovirus anti, whose call it bears; inhibition, %; measured here: 10K subset replicate screen; many hits read low in the repeat;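 first of two repeat runs on a subset; 0% = infected and 100% = uninfected wells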
* marks the source's active call; other numbers are inactive results; ? = inconclusive; · = not tested or not shown; & = joins results of further samples. The list is partial (hit frequency here may not be typical).

SMILES	RecA intein inh	Arbovirus anti	YopH inh	Mtb bLac sens	Mtb growth	others
CCOC(=O)c1c(C)[nH]c(C)c1C(=O)CN1C(=O)NC2(CCC(C)CC2)C1=O (centres undefined)	-1.0	3	-15	-1	1%
Cc1csc(CN(C)C(=O)CC2C(=O)NCCN2Cc2ccc(-c3ccccc3)cc2)n1 (centres undefined)	3.6	8	·	-8	2%
Cc1ccc(C(=O)NCCSCc2ccccc2)cc1[N+](=O)[O-]	2.3	4	-28	3	5%
CC(C)C(c1nnnn1C1CCCCC1)N1CCOCC1 (centres undefined)	0.5	4	-37	5	-4%
COc1ccc(CC(=O)OCN2C(=O)c3ccccc3C2=O)cc1OC	-0.7	·	·	-4	·
Cc1ccc2c(c1)c1ncnc(N3CCN(c4ccccc4)CC3)c1n2C	·	9	-30	-4	1%
CCCc1[nH]nc2c1C(C1CCCCC1)C(C#N)=C(N)O2 (centres undefined)	-5.2	0	-17	0	-5%	Arbovirus anti repeat=0
Cc1c(C(=O)OC(C)C)sc(NC(=O)c2cccnc2)c1C#N	1.4	14	-12	4	1%
CC1(c2ccc3c(c2)OCO3)NC(=O)N(CC(=O)c2ccc[nH]2)C1=O (centres undefined)	0.7	·	·	-11	·
CCOC(=O)c1cnc(-n2nc(C)cc2C)nc1NC1CCCC1	7.1	·	·	89	0.76µM*
O=C(CCN1CCOCC1)c1ccc(Cl)cc1	-2.0	-3	·	90	-5%
Cc1ccc(-n2c(C)cc(C(=O)COC(=O)c3ccc[nH]c3=O)c2C)cc1	1.2	6	-18	18	1%
O=C(Nn1cnnc1)c1cccc(S(=O)(=O)N2CCOCC2)c1	-1.2	2	·	13	-8%
Cn1c2c(c(=O)n(C)c1=O)C1c3ccccc3OCC1C(C)(C)O2 (centres undefined)	-0.7	6	1	-11	-12%	Arbovirus anti repeat=1
Cc1ccc(NS(=O)(=O)c2cccc(C(=O)NCCCN3CCCC3=O)c2)cc1	-0.7	·	·	4	·
COc1ccc(C(CC(=O)c2ccccc2)S(=O)(=O)c2ccccc2)cc1 (centres undefined)	-3.0	-1	-12	58	25%
O=C(CC(=O)NC1CCCCC1)N/N=C/c1ccc(Cl)cc1	-2.3	-10	-3	-6	-12%
CN1CCN(C2Cc3ccc(F)cc3Sc3cc(F)c(Cl)cc32)CC1 (centres undefined)	7.2	·	·	100	·
OC(CNCc1ccc(Cl)c(Cl)c1)c1ccccc1 (centres undefined)	-0.2	21	·	-10	7%
CC1(C(=O)OCC(=O)N2c3ccccc3Sc3ccccc32)CC1(Cl)Cl (centres undefined)	0.7	16	-8	-6	16%
CCOc1cc(NC(=S)NC)c(OCC)cc1NC(=O)c1cccs1	-2.5	·	·	30	·
CC(C)C(c1nnnn1Cc1ccccc1)N1CCN(Cc2ccc3c(c2)OCO3)CC1 (centres undefined)	-0.2	-6	-28	-3	1%
CC(C)n1cnc2c(Nc3ccc(C(=O)O)cc3)nc(Cl)nc21	-1.5	·	·	-8	3%
C=CCSc1nnc(NC(=O)c2c(CC)noc2C)s1	-0.8	·	·	-2	·
O=C(CSc1nc(-c2ccccc2)ns1)N1CCOCC1	0.4	0	·	100	?
CCN(CC)c1ccc2cc(C(N)=O)c(=O)oc2c1	-172	2	-26	3	-2%
Cc1nn(S(=O)(=O)c2ccc(Cl)cc2)c(C)c1Sc1ccc([N+](=O)[O-])cc1	1.0	13	-38	-4	-2%
N#Cc1cnn2ccn(C3OC(CO)C(O)C3O)c12 (centres undefined)	-0.5	·	·	-1	0%
O=C(c1cc(F)ccc1F)C1CCCN(C(=O)CCN2CCCCO2)C1 (centres undefined)	3.5	5	·	-1	-6%
COc1ccc(C2=CC(=O)OC3(CCCC3)O2)cc1	3.2	9	-2	-5	-2%
C/C(=N/NC(=O)CNC(=O)c1ccco1)c1ccc(Cl)cc1	0.9	·	·	1	·
Cc1nn(-c2ccccc2)c(/N=C/c2ccccc2O)c1-c1ccccc1	-0.3	-4	-18	-11	0%
O=C(NCc1ccncc1)C12CC3CC(CC(Cl)(C3)C1)C2	-1.8	·	·	0	·
O=C(Nc1cnccn1)Nc1ccc(Cl)cc1Cl	1.8	-24	·	-2	-1%
C(=C(c1ccccc1)c1ccccc1)c1ccccn1	-1.4	·	·	5	·
CCN(c1ccc(OC)cc1)S(=O)(=O)N1CCCC(C(=O)NCc2cccc(C)c2)C1 (centres undefined)	4.4	·	·	-10	·
CCN1CCN(CC(=O)N2N=C(c3cccs3)CC2c2ccc(C)cc2)C(=O)C1=O (centres undefined)	2.5	-3	·	1	1%
Cc1ccc(NC2c3ncccc3C(=O)N2Cc2cccs2)cc1 (centres undefined)	22	-2	·	-6	12%
CCOC(=O)C1CCN(Cc2coc3ccc(Cl)cc3c2=O)CC1	-1.8	7	2	-10	-6%
CCc1c(C)nc(N)n2c(SCC(=O)N3CCCc4ccccc43)nnc12	-4.7	-2	15	-6	-4%
Cc1ccc(NC(=O)COC(=O)c2ccc3c(c2)NC(=O)C2CCCN32)cc1 (centres undefined)	-287	1	-30	-8	1%
O=C(NC1CCCCC1)C(c1cccnc1)N(C(=O)c1csnn1)c1ccccc1 (centres undefined)	-2.5	·	·	-5	·
Cc1cc(SCC(=O)OCC(=O)N2CCCC2=O)c(C)cc1Br	0.9	·	·	12	·
O=C(Cn1ncc2c([nH]c3ccccc32)c1=O)N1CCN(c2ccc(F)cc2)CC1	1.8	·	·	-4	·
COc1ccc(CCNC(=O)c2cnc3ccccc3n2)cc1	1.1	·	·	5	·
CCN(c1ccc(OC)cc1)S(=O)(=O)c1nnc(NC(=O)COc2ccccc2)s1	0.6	·	·	-3	·
CCn1nc(C)c([N+](=O)[O-])c1C(=O)NNC(=O)c1ccccc1Cl	1.8	·	·	78	-6%
COc1ccc(/C=C/C(=O)O)cc1S(=O)(=O)N1CCC(Cc2ccccc2)CC1	2.4	·	·	-3	-8%
O=C(Cn1c(C(=O)N2CCN(C3CCCCC3)CC2)cc2sccc21)c1ccccc1	4.7	-23	6	47	7%
COc1cccc(Cn2c(NCc3cccnc3)nc3c2c(=O)n(C)c(=O)n3C)c1	18	-28	-16	-5	0%
Cc1nc2ccc([N+](=O)[O-])cc2[nH]1	-0.2	-1	·	1	0%
Cc1nc(Cl)sc1C(=O)Nc1ccccc1	0.4	-5	-22	-1	0%
COc1ccc(CN2C(=O)CCC(C(=O)O)C2c2ccccc2)cc1 (centres undefined)	1.1	10	·	-6	4%
CCOCCc1nn2c(=O)cc(CSCC(=O)Nc3cc(C)cc(C)c3)nc2s1	-6.3	·	·	-2	·
CCCC(C(=O)NCC1CCCO1)N(Cc1ccco1)C(=O)CNS(=O)(=O)c1ccc(F)cc1 (centres undefined)	-15	-1	-29	-8	-11%
O=C(NCc1ccccc1Cl)NC(=O)c1csc([N+](=O)[O-])c1	-0.7	·	·	30	-11%
CC(C)Oc1ccccc1C1Nc2ccccc2C(=O)N1c1ccc2c(c1)OCCO2 (centres undefined)	-1.3	4	-11	-5	-7%
COc1ccc(C2C(=O)N(CCc3ccccc3)CC(=O)N2C2CCCC2)cc1 (centres undefined)	-1.3	-7	-19	-8	-19%
COc1ccc(C(=O)c2ccccc2)c(OCC(=O)NC2CC2)c1	0.1	-9	·	-6	1%
C=CCn1c(SCC(=O)NC2CCS(=O)(=O)C2)nnc1-c1ccncc1 (centres undefined)	-1.3	5	·	6	6%

Quoted at random: 2 entries already listed
SMILES	RecA intein inh	Arbovirus anti	YopH inh	Mtb bLac sens	Mtb growth	others
O=C(Cn1c(C(=O)N2CCN(C3CCCCC3)CC2)cc2sccc21)c1ccccc1	4.7	-23	6	47	7%
CCCC(C(=O)NCC1CCCO1)N(Cc1ccco1)C(=O)CNS(=O)(=O)c1ccc(F)cc1 (centres undefined)	-15	-1	-29	-8	-11%

5 neighbouring entries already listed:
SMILES	RecA intein inh	Arbovirus anti	YopH inh	Mtb bLac sens	Mtb growth	others
Cc1ccc(NC(=O)COC(=O)c2ccc3c(c2)NC(=O)C2CCCN32)cc1 (centres undefined)	-287	1	-30	-8	1%
O=C(NC1CCCCC1)C(c1cccnc1)N(C(=O)c1csnn1)c1ccccc1 (centres undefined)	-2.5	·	·	-5	·
Cc1cc(SCC(=O)OCC(=O)N2CCCC2=O)c(C)cc1Br	0.9	·	·	12	·
O=C(Cn1ncc2c([nH]c3ccccc32)c1=O)N1CCN(c2ccc(F)cc2)CC1	1.8	·	·	-4	·
COc1ccc(CCNC(=O)c2cnc3ccccc3n2)cc1	1.1	·	·	5	·

(continued)
SMILES	RecA intein inh	Arbovirus anti	YopH inh	Mtb bLac sens	Mtb growth	others
COc1cccc(NC(=O)CN(c2cccc(OC)c2)S(C)(=O)=O)c1	-0.2	-3	·	0	-3%
COc1ccc2c(C)c(C(=O)NCC(C)O)oc2c1OC (centres undefined)	-5.2	3	-32	-2	-4%
Cc1noc(C)c1S(=O)(=O)N1CCC(Cc2ccccc2)CC1	7.2	7	-42	1	-5%
O=C(OCCN1CCN(c2ncc(C(F)(F)F)cc2Cl)CC1)c1ccc(F)cc1	-1.2	-8	-31	15	1%
O=C(CC(NCCc1ccccc1)C(=O)O)Nc1ccc(O)cc1 (centres undefined)	-2.7	7	-28	2	·
COc1ccc(/C=N\NC(=O)CCN2CCN(c3ccccc3)CC2)cc1OC	-2.7	4	-41	0	-4%
O=C(Nc1ccon1)c1cnc2sccn2c1=O	6.0	5	-36	-2	-8%
COc1ccc(C(=O)NC(=S)NCc2ccco2)cc1	-0.5	·	·	-6	4%
CCOP(=O)(C#Cc1ccccc1)C(O)c1ccc(Br)cc1 (centres undefined)	7.1	·	·	-4	7%
Cc1cc(OCC(=O)Nc2sc3c(c2C#N)CC(C)(C)NC3(C)C)c(C(C)C)cc1Cl	0.2	·	·	3	·
COc1cc(/C=N/NC(=O)c2ccc3ccccc3c2)ccc1Oc1ccc([N+](=O)[O-])cn1	·	-30	-21	76	6%
COc1ccc(CC(=O)Oc2ccc(C)cc2Br)cc1S(=O)(=O)N1CCOCC1	10	·	·	-11	·
Cc1cc(C)c(NC(=O)c2cc(C(=O)O)ccc2C(=O)O)c([N+](=O)[O-])c1	0.5	5	·	-11	-12%
O=C(CCCN1C(=O)C(c2ccccc2)Oc2cccnc21)NCc1ccc(F)cc1 (centres undefined)	2.4	·	·	-1	·
CC1SCCN1S(=O)(=O)c1ccc2ccccc2c1 (centres undefined)	5.0	-9	-18	-5	3%
Brc1ccc2c(c1)C(c1cccnc1)=NNC(c1cccs1)=N2	8.0	21	-29	2	13%
CCCCOc1ccc(C(=O)NCC(=O)OC2CCOC2=O)cc1 (centres undefined)	-0.7	-1	-24	2	·
O=C1C2Sc3[nH]c(=O)sc3C(c3cc([N+](=O)[O-])ccc3O)C2C(=O)N1c1ccccc1 (centres undefined)	-3.2	·	·	-2	·
CCOC(=O)c1c(CN2CCOCC2)n(C)c2cc(Br)c(O)c(CN(C)C)c12	-3.5&-1.8	12&10	6&-49	-7&-10	-17%&7%
O=S(=O)(Nc1ccccc1)c1ccc(NS(=O)(=O)c2cccs2)cc1	-2.0	·	·	2	·
Fc1ccccc1C1c2[nH]c3ccccc3c2CCN1Cc1ccoc1 (centres undefined)	6.3	19	·	1	-3%
COC(=O)c1cccc(C(=O)N2CCCC(CCC(=O)N(C)CCc3ccccn3)C2)c1 (centres undefined)	-3.3	·	·	-11	·
CCOP(=O)(OCC)C(NC(=O)c1ccccc1C)C(Cl)(Cl)Cl (centres undefined)	-2.0	2	-7	-4	-1%
O=C(CCc1ccccc1)NNC(=O)c1ccc(F)cc1	-2.1	-1	·	3	-7%
O=C(Nc1nc(-c2cccs2)cs1)c1cc2ccccc2oc1=O	·	-6	-30	·	·
COc1cccc(N(CC(=O)NCCSc2ccccc2)S(C)(=O)=O)c1	-0.9	3	-7	-5	1%
CC(C)c1ccc(NC(=O)CSc2nc3ccccc3nc2N2CCCC2)cc1	2.2	·	·	3	·
Cn1c(Cc2csc(N)n2)nnc1SCC(=O)NC1CCCCC1	-2.0	-3	32	-13	-29%
CCOC(=O)c1ccc(NC(=O)COc2ccc(CNCCO)cc2OCC)cc1	·	-11	·	-6	6%
COc1ccccc1CCC(=O)NNC(=O)c1ccc(Br)cc1	1.7	·	·	5	·
Cc1noc(C)c1C(=O)Nc1nnc(-c2ccccc2)s1	-2.7	-4	-14	-7	2%
O=C(c1ccc(S(=O)(=O)N2CCOCC2)cc1)N1CCN(c2ccccc2F)CC1	-0.7	4	-17	8	-4%
O=C(Nc1ccnn1C1CCN(C(=O)c2cnsn2)CC1)c1cccc(F)c1	2.8	·	·	-14	·
CCN(CC)S(=O)(=O)c1ccc(C(=O)NCCN(C)C)cc1	-1.5	-6	·	0	6%
O=C(CS(=O)(=O)c1cn(Cc2ccc(F)cc2)c2ccccc12)N1CCCCC1	-1.2	-9	-32	-3	-5%	Arbovirus anti repeat=-4
